HIV TAR-Tat = HIV-1 TAR-Tat binding disruption; HIV-1 TAR RNA, Tat peptide displacement FRET; active compounds read high; 0.6% of 100,000 active; z-score (concentration not given with the values);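 note: score is relative to mean and SD of negative controls; some compounds called inactive have numbers as strong as hits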
CDC25B-CDK2 inh = human CDC25B-CDK2/CyclinA binding inhibition; z-score (no concentration beside the values); P30305+P24941; 0.72% of 94,000 active; HTRF CDC25B-CDK2/CyclinA binding, anti-His/anti-Flag; active compounds read high; AID 1259370;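 note: score is relative to mean and SD of negative controls; strong numbers were not always called active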
* marks the source's active call; other numbers are inactive results; x = not tested or not shown.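 Rule for the calls: active = z-score from 3 up in half or more of its runs; inactive = the rest.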

The line under a structure holds: HIV TAR-Tat | CDC25B-CDK2 inh
Cc1ccccc1OCc1nnc(-c2ccccc2)o1
    2.7 | -1.1
O=S(=O)(O)C1Cc2c(no[n+]2[O-])-c2ccc(O)cc21 (stereo not drawn)
    x | -2.2
Cc1c(C(=O)NCCCN2CCCC2=O)oc2c1-c1[nH]ncc1CC2
    0.89 | -2.6
CCc1ccc(-c2csc(-c3ccccn3)n2)cc1
    1.3 | -0.94
O=C(CN1C(=O)c2cccc3cccc1c23)N1CCN(c2ccc(F)cc2)CC1
    0.78 | 0.16
CS(=O)(=O)N1CCCc2cc(C(N)=O)ccc21
    -0.38 | -1.1
COC(=O)CCC(=O)c1ccc(C(C)(C)c2ccc(C(=O)CCC(=O)OC)s2)s1
    x | -0.05
COc1ccc(S(=O)(=O)c2c(C(=O)c3ccccc3)cnc3ccc(OC)cc23)cc1
    -2.1 | -0.9
C=CCn1c(SCC(=O)N2CCCC2)nc2cc(C(=O)N3CCOCC3)ccc2c1=O
    x | -1.5
Cc1nc(=S)sn1-c1nc(Nc2ccccc2)nc(Nc2ccccc2)n1
    x | 0.4
COc1ccc(-c2c(C(F)(F)F)oc3c(CN(C)C)c(O)ccc3c2=O)cc1OC
    1.7 | -1.8
CC1=C(C(=O)OC(C)C)C(c2ccc(Cl)cc2)n2c(nc3ccccc32)N1 (stereo not drawn)
    -0.99 | -1.6
CCOC(=O)Nc1cncc(Br)c1
    x | -1.7
CCOC(=O)c1c[nH]c2cc(F)c(F)cc2c1=O
    3 | -2.1
COc1ccc2c(c1)CC(NC(=O)Nc1cc(Cl)ccc1OC)CO2 (stereo not drawn)
    1.2 | x
O=C(CCCn1sc2ccccc2c1=O)NCc1ccccn1
    0.93 | -1.1
Cc1ccc(CN2CCC(CNc3ncnc4onc(C)c34)CC2)cc1
    -1.1 | x
O=C(COCc1cc(-c2ccc3c(c2)OCO3)on1)N1CCCCC1
    -0.16 | x
O=C(Nc1nnc(-c2ccc3c(c2)OCO3)s1)C(=O)c1c[nH]c2ccccc12
    2.2 | -2
COc1cccc2c1OCC(C#N)=C2
    x | 3
O=C(Cn1c(=O)oc2cc(Cl)ccc21)NCCN1CCc2ccccc2C1
    1.2 | x
Cc1ccc(-c2cn3cccnc3n2)cc1NC(=O)c1cc(Br)ccc1Cl
    x | -0.12
Cc1ccc(CNc2c(-c3ccc(N(C)C)cc3)nc3ncccn23)cc1
    -6.3 | x
Cc1nn(C(C)C(=O)NCc2cccs2)c(=O)c2cc3occc3n12 (stereo not drawn)
    -0.53 | 0.49
CC(=O)NC1=NN(C(C)=O)C(c2cc(Br)ccc2OCc2ccc(C)cc2)S1 (stereo not drawn)
    2.5 | -1.1
FC(F)(F)c1ccccc1NC(=S)NNc1ccc(-c2csnn2)cc1
    x | -0.42
COc1cc(OC)c(NC(=O)CCC2=NS(=O)(=O)c3ccccc3N2)cc1Cl
    0.78 | x
COc1ccc(OCC(O)Cn2c[n+](C)c3ccccc32)cc1 (stereo not drawn)
    0.58 | 0.49
CC(=O)C(Sc1nn(CCOc2ccc(C)cc2)c(=S)s1)C(C)=O
    x | -1.1
CCC(CC)C(=O)Nc1nnc(S(=O)(=O)N2c3ccccc3CC2C)s1 (stereo not drawn)
    0.95 | -0.69
COCCn1c(=O)c2sc3ccccc3c2n(CC(=O)N2CCCc3ccccc32)c1=O
    0.37 | -1.5
CCC(C)NC(=O)C1CCN(c2nnc(-n3c(C)ccc3C)s2)CC1 (stereo not drawn)
    -0.02 | -0.82
COC(=O)C1=C(C)NC2=C(C(=O)CC(c3ccccc3)C2)C1c1ccc(C)o1 (stereo not drawn)
    1.6 | -1.7
CCOCCCNC(=O)Cn1ncn2nc(-c3cccs3)cc2c1=O
    -1.3 | -0.78
CN(c1c(-c2ccccc2)c(=O)c1=O)C1CCCCC1
    0.68 | x
CCOc1cccc2cc(-c3cn4c(n3)sc3cc(F)ccc34)c(=O)oc12
    x | -1.4
CCCc1nnc(NC(=O)c2nn(-c3ccc(F)cc3)ccc2=O)s1
    -0.64 | -2.1
Cc1cccc(CSc2nn3c(=O)c(C)nnc3s2)c1
    0.88 | x
Cc1nc(Nc2ccc(OC(C)C)cc2)cc(-c2ccccc2)n1
    0.07 | 0.76
Clc1nc(NCCN2CCOCC2)nc(NC2CCCCC2)n1
    0.13 | -1.4
CCOC(=O)c1nnc(-c2ccncc2)o1
    0.36 | 0.57
O=c1c(N2CCCC2)c(N2CCCC2)c1=O
    1.3 | -2.5
CCOC(=O)C(C(=O)OCC)=C(Nc1ccc(Cl)cc1)SC
    x | -0.87
CCOC(=O)CC(=O)CSc1nnc(N)s1
    x | -1
COc1ccc(C2C3=C(CCCC3=O)Nc3nc(SCC(C)C)nn32)c(OC)c1 (stereo not drawn)
    0.37 | -4

Exported with tabs: part of the list above
SMILES	HIV TAR-Tat	CDC25B-CDK2 inh
CCC(C)NC(=O)C1CCN(c2nnc(-n3c(C)ccc3C)s2)CC1 (stereo not drawn)	-0.02	-0.82
COC(=O)C1=C(C)NC2=C(C(=O)CC(c3ccccc3)C2)C1c1ccc(C)o1 (stereo not drawn)	1.6	-1.7

Next part
The line under a structure holds: HIV TAR-Tat | CDC25B-CDK2 inh
Cc1cc(C)cc(N2C(=O)CSC23C(=O)Nc2ccc(Br)cc23)c1 (stereo not drawn)
    x | -1.8
CCCN(CCC)Cc1ccc(CNS(=O)(=O)c2ccc3c(c2)CCCC(=O)N3)o1
    1.1 | x
CCc1ccc(C2C3=C(CCCC3=O)Nc3[nH]n(-c4ccccc4)c(=O)c32)cc1 (stereo not drawn)
    2 | -4.7
CCCOC(=O)c1ccc(N2COc3ccc4c(C)cc(=O)oc4c3C2)cc1
    x | 1.2
CCN(CC)c1ccc2c(c1)OC(N)=C(C#N)C2c1ccc(Cl)cc1 (stereo not drawn)
    -9.1 | -1.6
Cc1ccc2c(c1)C(O)(CC(=O)c1ccc(C)s1)C(=O)N2 (stereo not drawn)
    0.97 | x
O=C1NC(c2cccs2)C(C(=O)c2ccc(Cl)cc2)C(O)(C(F)(F)F)N1 (stereo not drawn)
    x | -0.24
N/N=c1/nc2sccn2c2ncccc12
    x | 1.1
CCOc1cc(C(Nc2ccccn2)c2ccc3cccnc3c2O)ccc1O (stereo not drawn)
    0.35 | 0.35
CC(C)C(NS(=O)(=O)c1cccs1)C(=O)NCCc1ccco1 (stereo not drawn)
    0.33 | x
Cc1nc2nc(C)c(CCC(=O)NCCC(C)C)c(C)n2n1
    0.87 | 0.02
CCN(CC)c1ccc(NS(=O)(=O)c2ccc(-c3cc(C)no3)s2)c(C)c1
    -5.4 | x
O=C(CCc1nc2sc3c(c2c(=O)[nH]1)CCCCC3)N1CCN(C2CCCCC2)CC1
    1.6 | x
Cc1cccc(-c2nc3nc(C)cc(NCc4ccccc4)n3n2)c1
    0.66 | -1.1
Cn1c(C(=O)N2CCc3ccccc32)cc2c(=O)n3ccccc3nc21
    0.9 | x
NNC(=O)OC12CC3CC(CC(C3)C1)C2
    x | -1.3
O=C1c2ccccc2C(Nc2ccccc2Br)N1c1ccc(Cl)cn1 (stereo not drawn)
    2.6 | -2.1
FC(F)(F)c1c(-c2nnnn2-c2ccccc2)cnn1-c1ccccc1
    x | -0.04
COc1c(/C(N)=N/O)cc(C)c2c1CCC2
    x | -2.3
Cc1ccc(-c2noc(-c3nnn(-c4cccc(Cl)c4C)c3N)n2)cc1
    -0.56 | x
CC(=O)C1C(c2ccccc2)NC(=O)NC1(O)C(F)(F)F (stereo not drawn)
    x | -1.3
CCCCCCC(=O)Nc1cc2nc3c(nc2cc1C)c(=O)n(C)c(=O)n3C
    0.85 | 0.23
CCCNC(=O)CCC(=O)N1CCCn2nc(C)cc21
    2 | x
CCOc1ccc(-c2nn3c(-c4ccncc4)nnc3s2)cc1
    -0.36 | -1.3
CCCN(CCC)C(=O)CCCn1nc(C)n2c(cc3occc32)c1=O
    0.58 | -0.14
O=C(Nc1ccc(Cl)cc1)N1CCN(c2cccc3[nH]ccc23)CC1
    x | 0.94
Cc1nnc2sc(Cc3ccc(Cl)cc3)nn12
    0.95 | 0.36
CCCn1c(Cn2ccnc2C)nc2cc(NC(=O)C(C)C)ccc21
    -1 | -1.9
COc1ccc(S(=O)(=O)CC(SC#N)c2ccccc2)cc1 (stereo not drawn)
    1.2 | -4.4
Cc1nc([N+](=O)[O-])cn1CC(=O)O
    0.47 | x
Cc1nc(-c2ccccc2)sc1C(=O)NC(=O)c1ccccc1O
    x | 0.81
CC1CCc2c(cnc3c(C(=O)NCCC4=CCCCC4)cnn23)C1 (stereo not drawn)
    1.1 | x
Nc1cc(-c2ccc(Cl)cc2)nn1S(=O)(=O)c1ccc(Cl)cc1
    0.27 | -1
Cn1c(=O)c(N2CCC(C(=O)N3CCN(C(=O)c4ccco4)CC3)CC2)nc2cccnc21
    -0.27 | x
Cc1c(Cl)c([N+](=O)[O-])nn1CC(=O)O
    3.2 | x
C=CCn1c(SCC(=O)c2ccc(Cl)cc2)nc2sc3c(c2c1=O)CCCC3
    2.3 | 0.11
Cc1c(C(=O)CN2CCN(C(=O)NC(C)C)CC2)c2ccccc2n1C
    -0.6 | x
Nc1ccccc1SCc1ccc2nonc2c1
    x | -0.51
Cc1noc(C)c1S(=O)(=O)Nc1csc(C(F)(F)F)c1-c1ccccc1
    x | 0.56
Cc1ccc(Nc2cc(C)nc3c(-c4ccc(F)cc4)cnn23)cc1
    -0.51 | 0.02
CCn1ccc2cc(S(=O)(=O)N3CCCN(C(=O)NCCC(C)C)CC3)ccc21
    1.8 | x
CN(Cc1ccco1)C(=O)c1ccc(CNS(=O)(=O)c2ccc3c(c2)C(C)(C)C(=O)N3C)cc1
    -0.94 | x
CCN(CC)c1cc(=O)n2c(-c3ccc(C)cc3)csc2n1
    0.28 | -1.3
CCCn1c(=O)c2sccc2n2c(CCCC(=O)NC3CC3)nnc12
    -1 | x
COCCn1c(SCC(=O)Nc2nccs2)nc2c(c1=O)SC(C)C2 (stereo not drawn)
    x | -2.3
COc1cccc(Cn2cc(C(=O)c3ccccc3)c(=O)c3cc(OC)c(OC)cc32)c1
    1 | -1.7
Fc1ccc(Nc2nc(-c3cccnc3)nc3ccccc23)cc1F
    0.69 | -0.02
Cc1ccccc1CN1C(=O)Nc2ccccc2S1(=O)=O
    -0.32 | x
CCC(C)NS(=O)(=O)c1ccc2c(c1)N(C(C)=O)CCO2 (stereo not drawn)
    0.93 | -2.6
O=c1[nH]c(=O)n(-c2cccc(Cl)c2)c(O)c1C1=Nc2ccccc2SC(c2cccnc2)C1 (stereo not drawn)
    2.5 | -0.68
COc1ccc(C2Nc3ccccc3NC3=C2C(=O)CC(c2ccccc2)C3)cc1 (stereo not drawn)
    x | -1.4
Cn1c(=O)c(=O)n(C)c2cc(S(=O)(=O)N3CCOCC3)ccc21
    -0.31 | -0.22
O=C(O)CCCC(=O)NCc1ccc2c(c1)OCO2
    -0.86 | -1.5
O=C(c1cccs1)N1CCCc2cc(NS(=O)(=O)c3ccc(F)cc3F)ccc21
    0.64 | x
Cc1ccc(CN2CCN(CC3CC=CCC3)CC2)cc1 (stereo not drawn)
    0.29 | -0.16
COc1ccc(Nc2ncc3nnn(-c4ccc(OC)cc4)c3n2)cc1
    -3.8 | -0.12
COc1ccc(S(=O)(=O)N2CCC(c3nc4ccccc4s3)CC2)cc1OC
    0.39 | -0.82
CC(=O)N1CCSc2ccc(S(=O)(=O)Nc3c(C)cc(C)cc3C)cc21
    2.2 | x
COc1cc(C2C3=C(CC(C)(C)CC3=O)Nc3ccc4ccccc4c32)ccc1O (stereo not drawn)
    0.18 | -0.49
Cc1ccc(NC2=NS(=O)(=O)c3ccccc32)c(C)c1
    3 | -0.91

One compound at a time, from the list above.
O=c1[nH]c(=O)n(-c2cccc(Cl)c2)c(O)c1C1=Nc2ccccc2SC(c2cccnc2)C1 (stereo not drawn) across the screens: HIV TAR-Tat = 2.5; CDC25B-CDK2 inh = -0.68
COc1ccc(C2Nc3ccccc3NC3=C2C(=O)CC(c2ccccc2)C3)cc1 (stereo not drawn) across the screens: HIV TAR-Tat = x; CDC25B-CDK2 inh = -1.4
COc1cccc(Cn2cc(C(=O)c3ccccc3)c(=O)c3cc(OC)c(OC)cc32)c1 across the screens: HIV TAR-Tat = 1; CDC25B-CDK2 inh = -1.7

(listing goes on)
The line under a structure holds: HIV TAR-Tat | CDC25B-CDK2 inh
Cc1ccc(CNc2cc(-c3ccccc3)nc3nncn23)cc1
    1.1 | 0.62
Cc1ccc(C(C)C)c(OCC(O)CN2CCCCC2)c1 (stereo not drawn)
    2.4 | -1.2
COc1ccc(C(=O)/C(Cc2cc(OC)c(OC)c(OC)c2)=C(\C(=O)O)c2ccc3c(c2)OCO3)cc1
    x | -0.51
CC(C)(C)n1cnnc1SCc1c(Cl)cccc1Cl
    x | -0.78
Cc1cc(C)c(NS(=O)(=O)c2ccc(-n3cccn3)cc2)c(C)c1
    0.51 | x
O=C(Oc1ccc(-c2cnc3ccccc3n2)cc1)c1ccccc1
    0.65 | -2.7
O=C(CSCc1nc2cccnc2n1C1CCCCC1)NCCc1ccco1
    1.5 | x
CCc1nnc2c(NCC(C)c3ccccc3)nc3ccccc3n12 (stereo not drawn)
    -0.25 | x
CCCS(=O)(=O)N1CCN(Cc2ccc(Br)cc2)CC1
    0.72 | -0.89

Screening data: PubChem, Center for Chemical Genomics, University of Michigan
